Mtb hypoxia rep = inhibitors of hypoxia-regulated fluorescent reporter in Mycobacterium tuberculosis; M. tuberculosis hypoxia-regulated fluorescent reporter, fluorescence; fluorescence inhibition, % (no concentration beside the values); actives 0.1% (n = 300,000);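 active = 35 to 45% if threefold the growth effect, above 45% if 1.5-fold the growth effect; inactive = the rest, general growth blockers included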;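 also: wells of about 50 µL received 100 nL stock; 0% = vehicle wells and 100% = reference inhibitor wells; whole bacteria with a GFP reporter of the hypoxia response; strong numbers were not always called active; many hits fall short of the cut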
ugtP null kill = compounds lethal to S. aureus RN4220 ugtP deletion mutant; actives 0.54% (n = 330,000); growth inhibition, % (concentration not given with the values); OD600 growth, 16 h; some inactives read as strong as hits;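 active = z-score under -3 and OD600 up to 0.15 on both plates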;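 also: plate controls were untreated wells for no effect and antibiotic for full effect; wells of about 80 µL received 100 nL stock; the first replicate is given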
PrP 5UTR inh = inhibition of PrP 5' UTR reporter expression; inhibition, % (concentration not given with the values); actives 0.35% (n = 340,000); cell-based PrP 5' UTR mRNA reporter, plate reader;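 active = every replicate at 50% or more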;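 also: 0 = median of the neutral control wells; tested in H4 reporter cells; numbers are from one replicate; inactives centre near -14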
BJeLR viability = BJeLR cell viability loss; actives 0.17% (n = 300,000); inhibition, % (test concentration not listed); BJeLR (HRASV12) viability, CellTiter-Glo ATP luminescence, 48 h; reference of the scale not given here; AID 1554;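 active = replicate mean above 50%; inconclusive = above 50% but judged a plate artefact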;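 also: 50 nL library stock added to about 25 µL; numbers are from one replicate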
RN4220 kill = S. aureus RN4220 growth inhibition | OD600, 16 h | inhibition, % (concentration not given with the values) | actives 0.33% (n = 330,000);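 active = z-score of -3 or lower and OD600 up to 0.18 on both plates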;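 also: plate controls were untreated cells for no effect and reference antibiotic for full effect; stock transfer was 100 nL into about 80 µL; one replicate is shown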
Autofluor counter = counter-screen for toxin protease inhibitors: compound fluorescence; compound autofluorescence counterscreen, microsphere flow cytometry; hits give high values; actives 3.1% (n = 360,000); AID 624483; fluorescence intensity (test concentration not listed);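 active = at least 3 SD above the mean of all compounds, about 16000 in these data; inconclusive = too few beads counted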;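 also: 100 nL of 1 mM stock went into each well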
Mtb hypoxia rep growth = also measured in Mtb hypoxia rep; calls as there; growth inhibition, %; measured here: M. tuberculosis growth (absorbance);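 0% = vehicle and 100% = reference antibiotic; read after six days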
The depositor's hits bear a star; ? = inconclusive; · = not tested or not shown.

SMILES	Mtb hypoxia rep	Mtb hypoxia rep growth	ugtP null kill	PrP 5UTR inh	BJeLR viability	RN4220 kill	Autofluor counter
O=C(CC1C(=O)NCCN1CC1CCCCC1)NCc1ccc(F)cc1F (stereo not drawn)	7.0	-1.8	-0.9	-12.8	-3.0	3.6	5006
CC(C)CC1COCCS(=O)(=O)N1Cc1cccc(C(F)(F)F)c1 (stereo not drawn)	19.4	9.1	5.0	·	·	10.0	·
CCCCCCn1c(O)c(/C=C2\C=NN=C2c2ccccc2)sc1=S	5.7	-3.5	10.3	3.0	-7.1	-9.1	2076
CC(=O)Nc1nnc(CSCc2ccc(F)cc2)s1	3.8	0.2	14.5	-42.0	11.0	3.3	3769
Cc1ccc(C)n1-c1ccc(N(C)C)cc1	3.5	-0.2	2.9	-24.4	-1.9	0.5	3445
COc1ccc2c3c(c(=O)oc2c1OCC(=O)C(C)(C)C)CCCC3	13.0	15.5	-7.0	-3.1	4.5	-5.5	2988
Cn1c(SCc2ccccc2Cl)nc(C(F)(F)F)cc1=O	2.7	-0.9	1.3	-18.2	4.9	5.7	11074
CN1CCN(C(=O)C2CCN(S(=O)(=O)c3cnc[nH]3)CC2)CC1	·	·	6.7	-24.2	1.7	6.4	4969
CCN1CCN(c2ccc(S(=O)(=O)N3CCCCC3)cc2NC(=O)/C=C/c2cccc(OC)c2OC)CC1	-4.2	-6.1	9.7	-14.5	-0.9	0.2	4681
C/C(=C\C(=O)Nc1cscc1C)C(=O)O	·	·	·	-38.1	-1.3	·	6183
O=S(=O)(c1ccc(F)cc1)N1CCN(Cc2nnc(-c3ccccc3)o2)CC1	4.7	3.9	5.3	-12.3	·	1.9	·
CCCc1[nH]c(=O)c(C#N)c2c1CCCC2	-2.9	7.7	0.5	0.6	2.1	2.7	10619
Cc1nccn1CCC(=O)Nc1ccc(Cl)cc1	4.2	2.1	11.9	7.5	2.2	4.2	5272
O=C1c2ccccc2C(=O)N1c1n[nH]c(CCc2ccccc2)n1	8.4	4.2	5.2	-23.8	5.2	0.8	9152
Cc1cccc2c1CC(C)(C)N=C2C1=C(O)CC(C)(C)CC1=O	·	·	-1.7	2.0	0.4	2.9	2561
Cc1nc2sc3c(c2c(=N)n1N)CCCC3	1.9	3.6	2.9	-10.7	1.4	3.6	2566
CCc1ccccc1NC(=S)N1CCC(NC(=O)c2ccc(OC)cc2)CC1	0.9	-3.3	2.3	-18.6	-3.4	3.8	3934
O=C(N/C(=C\c1ccco1)C(=O)N1CCCC1CO)c1ccccc1 (stereo not drawn)	-1.2	-11.8	3.1	6.0	-1.1	2.4	6178
O=C(NN=Cc1ccccc1Cl)C1CC1	8.8	0.5	10.3	·	·	7.9	·
Cc1ccc(CCNC(=O)C2CCCN(S(=O)(=O)c3cnc[nH]3)C2)cc1 (stereo not drawn)	·	·	4.6	-15.6	-5.8	-0.3	5368
O=C(NNC(=O)c1ccc[nH]1)c1cccc(C(F)(F)F)c1	-2.2	-9.2	15.5	-10.4	-10.5	7.5	4781
C=C(C)C(=O)O[C@H]1C/C(C)=C\C(=O)/C=C(\C)[C@H](O)[C@@H]2OC(=O)C(=C)[C@@H]21	·	·	·	-78.0	8.4	·	2755
C[n+]1cccc(C2C(C#N)=C(N)Oc3c2ccc2ccccc32)c1 (stereo not drawn)	12.4	1.0	4.5	-29.1	-3.3	3.3	3904
O=C1N=C(N2CCCC2)S/C1=C\C=C\c1ccccc1	5.1	14.5	-3.2	18.7	-24.1	5.1	4230
COc1ccc(Br)cc1CN(C)CC(=O)Nc1c(Cl)cccc1Cl	4.3	3.0	18.7	-19.6	-6.1	22.9	2669

Next compounds follow.
SMILES	Mtb hypoxia rep	Mtb hypoxia rep growth	ugtP null kill	PrP 5UTR inh	BJeLR viability	RN4220 kill	Autofluor counter
Nc1nc(CSC(=S)N2CCN(c3ccccc3)CC2)nc(Nc2ccc(F)cc2)n1	7.2	5.2	7.1	-12.8	5.6	-13.5	2339
CC(=O)Oc1ccc(-c2cccc(C(=O)N3CCCCC3)c2)cc1	·	·	5.0	-10.0	-2.1	0.2	3543
O=C(CCc1ccccn1)NC1CCCc2c1cnn2-c1ccc(F)cc1F (stereo not drawn)	5.9	-1.2	-2.7	-23.3	-0.5	4.8	3964
CN(C)c1ccc(NC(=O)CSc2nnc(-c3cnccn3)n2C)cc1	12.6	4.9	8.0	-20.0	-2.1	-2.2	5276
COc1ccc(C(=O)NCc2nnc(SCC(=O)N3CCOCC3)o2)cc1	10.8	-1.4	10.1	-22.5	-6.4	8.2	2581
O=Cc1cccc(Oc2ccc([N+](=O)[O-])cc2[N+](=O)[O-])c1	4.2	3.3	13.9	-35.7	10.3	3.5	4566
Cc1ccc2c(c1)C(c1ccccc1)N(C(=O)c1ccccc1)CC(=O)N2 (stereo not drawn)	3.6	-5.8	8.0	-21.6	-1.8	1.5	3829
CC(=N\NC(=O)c1cc(Br)ccc1O)/C(=N/O)C(=O)Nc1ccccc1	·	·	·	-16.3	-0.8	·	5724
O=C(CNC(=O)c1ccccc1F)NCc1cccnc1	-3.6	6.6	2.9	-24.1	-4.1	1.1	4719
CSc1ccc(C=NNc2cccc(C(=O)O)c2)cc1	-5.3	-9.4	1.9	·	·	2.4	·
Cn1c(SCc2ccc3c(c2)OCO3)nnc1-c1ccccc1	·	·	0.8	-29.3	0.9	5.1	4866
Cn1c(Cn2nnc(-c3ccccc3)n2)nnc1SCc1ccccc1Cl	12.7	8.6	-5.5	-14.0	-16.9	12.8	16202*
S=C(NCCCN1CCOCC1)Nc1ccc(Nc2ccccc2)cc1	-5.3	5.9	-0.9	-12.9	8.9	4.7	4053
O=C(Nc1cccc2ccccc12)NC1Cc2ccccc2C1	12.9	9.0	3.1	-26.5	-5.3	1.7	?
Cc1ccc(NC(=O)COC(=O)c2ccc3c(c2)OCCO3)cc1	21.5	45.2	1.2	-8.5	·	1.2	8349
N#Cc1ccc(NC(=O)CN2CCN(C(=O)c3cccs3)CC2)cc1Cl	4.4	9.8	3.5	0.1	·	-2.0	7361
Oc1ccc(C=NN2CCN(Cc3ccccc3)CC2)cc1	1.6	6.0	11.4	·	·	1.2	·
COC(=O)c1cccc(C(=O)N2CCC(CO)(CCc3ccccc3)CC2)c1	2.3	10.0	9.6	-17.9	-1.9	1.5	4260
CC(C)Cn1cc(Cl)c(=O)n(CC(C)C)c1=O	7.5	4.6	4.4	-12.9	0.9	8.1	3232
CS(=O)(=O)c1nsc2nc(=O)c(/C=C3\C=Nc4ccccc43)c(N)n12	6.3	8.2	3.5	-10.9	-4.6	5.0	2235
CC1(C)C=C(c2ccc(O)cc2)CC(C)(C)N1	11.4	4.6	-7.7	-9.2	1.5	5.1	4284
CCN(Cc1ccncc1)Cc1nc(Cc2ccccc2Cl)no1	9.5	0.7	-6.7	-14.3	-1.8	5.3	5000
O=C1CSC(c2cccnc2)N1Cc1ccc(Cl)cc1 (stereo not drawn)	5.7	8.3	6.6	-22.7	-14.0	3.3	4534
CN(CC(=O)Nc1c(Cl)cccc1Cl)C(=O)CNC(=O)C1CCCCC1	5.0	-0.6	9.5	6.6	4.9	4.2	4797
O=C(Nc1ccc(S(=O)(=O)N2CCCCC2)cc1)c1ccc(=O)[nH]c1	4.7	-1.7	2.7	-27.9	·	-2.5	3216

Next records follow.
SMILES	Mtb hypoxia rep	Mtb hypoxia rep growth	ugtP null kill	PrP 5UTR inh	BJeLR viability	RN4220 kill	Autofluor counter
Cc1ccc(C(=O)N/C(=C\c2cn(S(=O)(=O)N(C)C)c3ccccc23)C(=O)NCCN2CCOCC2)cc1	-5.9	6.2	-7.1	-25.0	-3.9	10.0	5634
CCC(=O)c1ccc(OCC(=O)Nc2cc(S(=O)(=O)N3CCCCC3)ccc2N2CCN(CC)CC2)cc1	-8.3	-9.3	5.3	-21.3	9.4	3.6	4546
O=C1CCCc2nc(N3CCN(Cc4ccccc4)CC3)ncc21	4.2	11.4	-1.0	-13.0	-6.0	0.6	17293*
Cc1ccc(S(=O)(=O)NC(=O)C2CCCCC2)cc1	1.7	-0.7	0.8	-8.7	·	6.6	3821
CCN1C(=O)[C@H]2[C@@H](c3ccc(-c4cccc(Cl)c4)c(OC)c3)N[C@@](Cc3ccccc3)(C(=O)OC)[C@H]2C1=O	·	·	·	1.1	1.8	·	4120
OCCNc1nc(Nc2ccccc2OC(F)(F)F)nc(N2CCCC2)n1	11.4	10.5	2.9	-11.2	2.2	8.6	3717
O=C(CSc1ccccn1)Nc1cccc([N+](=O)[O-])c1	-1.0	-5.9	25.0	-10.4	-20.9	7.8	3278
C(=N/n1c2ccccc2c2ccccc21)/c1ccco1	·	·	·	-6.4	6.3	·	2424
O=C(NCCN1C(=O)S/C(=C/c2ccccc2)C1=O)C1CCCN1C(=O)c1cccs1 (stereo not drawn)	-6.5	1.9	0.7	-43.0	-3.4	0.0	2610
Cc1ccccc1-c1nc(CS(=O)CC(=O)NCCc2ccc(Cl)cc2)c(C)o1 (stereo not drawn)	-6.0	1.4	-12.3	13.0	-6.8	-0.6	6094
CC(=O)c1c(C)[nH]c(C(=O)Nc2cccc(C#N)c2)c1C	-5.1	0.2	-4.1	-31.3	-2.3	-4.0	3929
CCCC(=O)Nc1cc(C)c(NC(=O)c2cccs2)cn1	3.7	17.2	0.7	-16.1	-3.3	2.4	2656
Cn1nc(C(F)(F)F)c(/C=N/OC(=O)c2ccccc2)c1SCc1ccc(Cl)cc1	·	·	·	-26.6	-6.2	·	21079*
CN(C)CCCNC(=O)C[C@H]1C[C@H](C(=O)N2CCOCC2)[C@@]2(CCC3CCCC3)c3[nH]c4cc(-c5ccco5)ccc4c3CCN2C1=O	-1.8	21.3	-14.3	1.7	·	6.5	2988
CN(C)CCCN(C(=O)c1ccc(S(=O)(=O)N(C)C2CCCCC2)cc1)c1nc2ccc(Br)cc2s1	4.5	-1.9	-13.7	-10.0	5.8	-7.8	4635
Cc1nn(Cc2c(Cl)cccc2Cl)c(C)c1NC(=O)CCCn1nc([N+](=O)[O-])c(Cl)c1C	1.3	-0.8	-1.2	5.4	0.3	2.8	7301
O=Nc1onc(-c2ccc([N+](=O)[O-])cc2)c1NO	3.2	10.7	3.6	-82.1	5.7	10.0	3982
CN(CC1CCCO1)S(=O)(=O)c1ccc(C(=O)Nc2nccs2)cc1 (stereo not drawn)	0.6	3.5	-0.2	-16.1	2.2	5.0	3489
CCn1c(C)nc2cc(OC)ccc21	3.8	1.0	6.1	-29.3	-2.0	4.1	4958
CP(C)(=O)CCC(=O)O	·	·	-0.6	-15.9	0.7	-6.0	5127
O=C(CCNC(=O)c1ccco1)NCc1ccc(C(=O)O)cc1	4.0	6.6	4.0	-11.2	·	3.1	3651
COc1cc(NC(N)=S)c(OC)cc1Cl	10.5	3.5	2.6	-57.1	-3.4	3.4	5227
Cc1c(C(=O)NCCCN2CCCC2=O)oc2c(Cl)cccc12	9.4	2.4	7.1	-29.1	0.1	-0.1	6015
O=C(O)c1cccc(N2C(=O)C3CC=C(Cl)CC3C2=O)c1 (stereo not drawn)	·	·	0.4	-8.0	7.9	2.7	4688
CCC(C)C12CN3CCN(CC(C)(C3)C1=O)C2 (stereo not drawn)	·	·	-0.6	-17.0	-3.6	5.6	2551
Cc1csc(NC(=O)CSc2nnc(-c3ccncc3)o2)n1	·	·	-11.6	-26.8	-0.9	-1.6	2795
N=C1N(N=Cc2ccccc2)C(=Nc2ccccc2)C(=S)N1c1ccccc1	-0.9	13.0	1.5	·	·	1.6	·
O=C(NC(=S)NCc1ccncc1)c1ccccc1	-2.2	2.7	13.0	-9.3	0.5	8.3	2097
COc1cc(/C=C2\N=C(c3ccccc3)OC2=O)ccc1OCc1c(C)no[n+]1[O-]	6.4	6.9	-4.5	0.4	-10.3	3.5	1981

Results in Mtb hypoxia rep, ugtP null kill and BJeLR viability, for three of the compounds above:
SMILES,Mtb hypoxia rep,ugtP null kill,BJeLR viability
C(=N/n1c2ccccc2c2ccccc21)/c1ccco1,·,·,6.3
O=C(NCCN1C(=O)S/C(=C/c2ccccc2)C1=O)C1CCCN1C(=O)c1cccs1 (stereo not drawn),-6.5,0.7,-3.4
Cc1ccccc1-c1nc(CS(=O)CC(=O)NCCc2ccc(Cl)cc2)c(C)o1 (stereo not drawn),-6.0,-12.3,-6.8
